Screens: PubChem, several laboratories
Yeast UUG start = modulators of start codon recognition fidelity in yeast. S. cerevisiae UUG-firefly luciferase reporter, luminescence/redox ratio. activity score, % at 18.7 µM. hit rate 0.13% among 350,000;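 active means replicate mean at a twofold rise or more, about +100% in these data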;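 further: firefly luciferase made from a UUG start codon reports start codon fidelity; reporter light over untreated wells divided by growth signal over untreated wells; some hits fall short of that in this replicate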
CSC inhib = blocks cancer stem cells; AID 2717; cancer stem cell-like cells viability, luminescence; inhibition, % at 7.5 µM; hit rate 1.1% among 300,000;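 active means mean at 75% or more and at least half the replicates too; tested in HMLE shEcad cells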;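 further: 0% = median of negative and 100% = median of positive control wells; the first replicate is given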
PABP FP inh = blocks human PABP binding to poly(A) RNA; AID 2014; fluorescence polarization; inhibition, % at 35 µM; P11940; hit rate 1% among 290,000;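 active means 50% or more with normal probe brightness, or confirmed in later tests; about a fifth of its hits are not listed in these tables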;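 further: calls also rest on retests at 20 µM and on dose response follow-up; controls were probe without protein and protein plus probe with vehicle; some compounds called inactive have numbers as strong as hits; many hits fall short of the cut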
Target sequence (P11940 whole entry, looked up): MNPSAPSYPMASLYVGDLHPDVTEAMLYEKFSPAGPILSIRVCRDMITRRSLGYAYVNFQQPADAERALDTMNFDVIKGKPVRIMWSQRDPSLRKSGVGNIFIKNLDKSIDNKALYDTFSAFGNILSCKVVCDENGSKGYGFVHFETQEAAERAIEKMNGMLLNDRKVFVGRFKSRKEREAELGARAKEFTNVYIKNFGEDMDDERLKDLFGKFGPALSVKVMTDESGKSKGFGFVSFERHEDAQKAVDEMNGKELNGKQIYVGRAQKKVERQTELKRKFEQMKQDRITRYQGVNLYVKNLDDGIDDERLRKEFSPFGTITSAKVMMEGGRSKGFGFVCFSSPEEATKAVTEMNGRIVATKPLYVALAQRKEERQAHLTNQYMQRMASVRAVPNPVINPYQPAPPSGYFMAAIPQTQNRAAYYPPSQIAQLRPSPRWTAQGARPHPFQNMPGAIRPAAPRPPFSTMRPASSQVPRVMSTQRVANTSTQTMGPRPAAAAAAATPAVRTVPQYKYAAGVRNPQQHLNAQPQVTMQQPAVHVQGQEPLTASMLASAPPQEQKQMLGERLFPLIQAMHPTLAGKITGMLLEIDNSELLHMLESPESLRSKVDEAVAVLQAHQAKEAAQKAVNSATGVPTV
MT1-MMP act inh = inhibitors of human MT1-MMP activation | P50281 | HT1080 RFP-PRO-GFP cells, GFP/RFP ratio fluorescence, overnight; percent of plate control window, DMSO zero | GFP/RFP ratio change, % at 20 µM | hit rate 0.061% among 360,000;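 active means GFP/RFP ratio change of at least 30% with cell ATP level not reduced by more than half and red fluorescence within 50% of control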; further: strong numbers were not always called active
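Test system: HT1080 cells expressing an RFP-PRO-GFP fluorescent reporter construct / Compound dosing: single-point 20 µM compound, 1% DMSO / Schedule: cells overnight before dosing, compound overnight, 37 °C, 5% CO2 / Evaluation: GFP/RFP fluorescence ratio / Control set: DMSO and RFP-L50D-GFP cell wells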
Rce1 inhib = yeast Ras-converting enzyme inhibition; yeast membranes, quenched prenylated peptide cleavage fluorescence; calls only; hit rate 0.27% among 290,000; AID 2563;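 active means fall in fluorescence gain of 50% or more versus controls, with final raw signal at or below 3038400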;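 further: plate controls were neutral control wells for no effect and wells lacking membranes for full effect; tested at 10 µM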
Target sequence (Q03530 whole entry, looked up): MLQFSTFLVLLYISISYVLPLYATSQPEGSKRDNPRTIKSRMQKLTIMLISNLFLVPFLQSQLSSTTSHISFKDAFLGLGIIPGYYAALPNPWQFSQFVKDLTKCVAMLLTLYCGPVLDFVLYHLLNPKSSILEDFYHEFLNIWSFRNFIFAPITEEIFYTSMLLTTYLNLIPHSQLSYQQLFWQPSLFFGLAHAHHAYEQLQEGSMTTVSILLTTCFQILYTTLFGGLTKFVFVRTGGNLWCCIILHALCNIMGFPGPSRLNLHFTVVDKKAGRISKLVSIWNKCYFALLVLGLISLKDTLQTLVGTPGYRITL
HIV Env fusion = blocks HIV Env-driven cell-cell fusion; HeLa-JRFL Env/CEM21 cell fusion, luciferase; inhibition, % at 12.3 µM; hit rate 1.1% among 360,000; AID 651610;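 active means mean replicate inhibition score of at least 50 and every replicate individually at or above 50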;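 further: 0% = plate neutral controls and 100% = maraviroc near 300 nM; one replicate is shown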
eIF4H FP inh = inhibitors of RNA binding by human eIF4H. eIF4H fluorescence polarization binding assay. inhibition, % at 35 µM. hit rate 0.94% among 290,000. AID 2012;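 active means 50% or more with normal probe brightness, or confirmed in later tests; about a fifth of its hits are not listed in these tables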;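 further: calls also rest on retests at 20 µM and on dose response follow-up; 0% = protein and probe with vehicle and 100% = probe without protein; strong numbers were not always called active; many hits fall short of the cut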
eIF4H FP inh retest = further read-out of eIF4H FP inh, marked with its call; inhibition, %; compound at 20 µM; confirmation average;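 mean of two retest wells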
PABP FP inh retest = second read-out of PABP FP inh, no call of its own (marks repeat the call); inhibition, %; compound at 20 µM; confirmation repeats;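 mean of two retest wells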
MT1-MMP act inh RFP = further read-out of MT1-MMP act inh, marked with its call; RFP signal change, %; measured here: RFP expression control read;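 0 = vehicle wells; hits needed this value within 50% of zero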
Starred values were filed as active, the others as inactive; i = inactive; nt = no result given; & = joins results of further samples.

SMILES	Yeast UUG start	CSC inhib	PABP FP inh	MT1-MMP act inh	MT1-MMP act inh RFP	Rce1 inhib	HIV Env fusion	eIF4H FP inh	others
NCCc1ccc(OCc2ccccc2)c(OCc2ccccc2)c1	4	106*	nt	3	-2	nt	nt	nt
Cc1ccc(N2CCN(CCc3ccccc3)CC2)cc1	nt	29	-4	-2	3	i	nt	-14
CC1(C)CN=C(Nc2ccc(F)c(Cl)c2)S1	nt	-9	0	4	2	i	-37	-8
CCCCn1c(C)c(C(=O)OCC)c2c(CN3CCCC3)c(O)ccc21	-6	9	-6	-3	-9	i	49	6
CCCCCn1c(NC(=O)c2ccco2)c(C(=O)OCC)c2nc3ccccc3nc21	-29	4	-14	-39	0	i	nt	17
COC(=O)C1=C(c2ccccc2)C[C@@H]2CC[C@H]1N2C(=O)NC(C)C	-16	-19	nt	1	6	i	-18	nt
O=C(C1CCC(=O)N1C1CCCCC1)N1CCC2(CC1)OCCO2 (configuration not stated)	-5	-16	-14	-2	-1	i	nt	-8
Cc1c(C)c2ccc(OCC(=O)N3CCN(Cc4ccccc4)CC3)cc2oc1=O	-23	-12	nt	4	4	nt	14	nt
Oc1ccc(C2NCc3ccccc3-n3cccc32)cc1Cl (configuration not stated)	-11	-6&3	0&-6	-4&-1	-3&1	i	2	-4&-12
O=C(Cc1ccccc1[N+](=O)[O-])N1CCN(Cc2ccc3c(c2)OCO3)CC1	nt	4	-8	-1	1	i	33	-6
COc1ccc(Cc2c(O)[nH]c(=O)[nH]c2=O)c(OC)c1	nt	-3	10	0	0	i	-8	-2
O=C1NC(=O)N(CCC2=CCCCC2)C(=O)/C1=C/c1ccc(O)cc1	-2	2	1	-8	-1	i	-3	29
Cc1sc2nc(COC(=O)Cc3ccccc3)[nH]c(=O)c2c1C	-17	3	9	-2	4	i	-151	4
Cc1cccc(OP(=O)(Oc2ccccc2)OC(c2ccccc2)C(F)(F)F)c1 (configuration not stated)	nt	27	-1	-11	-10	i	34	0
N#Cc1c(/N=C/c2ccc(O)cc2O)sc2c1C1CCN2CC1	nt	0	-4	1	9	i	-90	16

Sorted by length of the SMILES (highest first): part of the list above
SMILES	Yeast UUG start	CSC inhib	PABP FP inh	MT1-MMP act inh	MT1-MMP act inh RFP	Rce1 inhib	HIV Env fusion	eIF4H FP inh	others
O=C(Cc1ccccc1[N+](=O)[O-])N1CCN(Cc2ccc3c(c2)OCO3)CC1	nt	4	-8	-1	1	i	33	-6
Cc1cccc(OP(=O)(Oc2ccccc2)OC(c2ccccc2)C(F)(F)F)c1 (configuration not stated)	nt	27	-1	-11	-10	i	34	0
COc1ccc(Cc2c(O)[nH]c(=O)[nH]c2=O)c(OC)c1	nt	-3	10	0	0	i	-8	-2

Next section:
SMILES	Yeast UUG start	CSC inhib	PABP FP inh	MT1-MMP act inh	MT1-MMP act inh RFP	Rce1 inhib	HIV Env fusion	eIF4H FP inh	others
CCOP(=S)(OCC)Oc1cc(C)nc(C(C)C)n1	-12	nt	nt	1	3	nt	16	nt
CC(C)(C)n1c(O)c(C=Nc2ccc3c(c2)CCC3)c(=O)[nH]c1=O	-11	3	3	-6	-11	i	nt	-8
COc1ccc(Cl)cc1C(=O)C1CCCN(Cc2cnc(C)s2)C1 (configuration not stated)	5	-4	-8	-2	-4	i	31	-2
COc1ccc(C2SCC(=O)Nc3c2c(=O)[nH]n3C2CCCCCC2)cc1 (configuration not stated)	10	-21	0	-3	-1	i	28	-18
CCOC(=O)C1=C(C)N(C)C2(C)CC1c1ccccc1O2 (configuration not stated)	nt	4	2	-9	-6	i	nt	2
Cc1cc(O)c(CN2CCN(c3ccccc3)CC2)cc1C	-17	-2	0	1	-2	i	nt	-8
O=c1c2ccccc2nc(-c2ccco2)n1-c1ccccn1	3	-21	9	-4	1	i	nt	18
COc1cccc(-n2c(/C=C/c3ccccn3)nc3ccccc3c2=O)c1	-26	nt	-17	0	-8	i	11	-13
COc1ccc(OC)c(N=Cc2c(O)[nH]c(=O)[nH]c2=O)c1	-5	-2	5	0	3	i	-21	-1
CCOC(=O)CC1=C(C(=O)OCC)C2(C(=O)N1CC(=O)OC)C(C#N)=C(N)Oc1ccccc12 (configuration not stated)	9	-2	5	-2	-4	i	-94	-1
CN1C(=O)C[N+]([O-])=C(c2ccccc2)c2cc(Cl)ccc21	-9	nt	nt	-2	3	nt	22	nt
COC(=O)C1=C(N)Oc2cc(C)oc(=O)c2C12C(=O)Nc1ccccc12 (configuration not stated)	nt	-20	22	-4	5	i	0	-4
O=c1c2ccccc2nc(/C=C/c2ccccn2)n1-c1ccccc1	0	4	5	-1	-8	i	4	-9
CCC(=NCCCN1CCOCC1)c1c(O)n(Cc2ccccc2)c(=O)[nH]c1=O	-21	-4	5	0	1	i	-48	-2
O=C(NCc1ccccc1)c1cccn(Cc2ccccc2)c1=O	-16	13	-2	0	0	i	9	-2

Next section; the last four above are carried over.
SMILES	Yeast UUG start	CSC inhib	PABP FP inh	MT1-MMP act inh	MT1-MMP act inh RFP	Rce1 inhib	HIV Env fusion	eIF4H FP inh	others
COC(=O)C1=C(N)Oc2cc(C)oc(=O)c2C12C(=O)Nc1ccccc12 (configuration not stated)	nt	-20	22	-4	5	i	0	-4
O=c1c2ccccc2nc(/C=C/c2ccccn2)n1-c1ccccc1	0	4	5	-1	-8	i	4	-9
CCC(=NCCCN1CCOCC1)c1c(O)n(Cc2ccccc2)c(=O)[nH]c1=O	-21	-4	5	0	1	i	-48	-2
O=C(NCc1ccccc1)c1cccn(Cc2ccccc2)c1=O	-16	13	-2	0	0	i	9	-2
CCN1C[C@]2(COC(=O)c3ccccc3N)CC[C@H](OC)C34[C@@H]5C[C@H]6[C@H](OC)[C@@H]5[C@](O)(C[C@@H]6OC)[C@@](O)([C@H]13)[C@@H](OC)[C@@H]42	6	-13	-10	-1	3	i	20	0
CCOC(=O)c1c(C)n(Cc2ccco2)c2ccc(O)cc12	-28	nt	11	0	-4	i	-69	24
CCN1CCN(c2cn[nH]c(=O)c2Cl)CC1	nt	-11	4	3	6	i	-20	-4
CC(=O)Nc1cc(C(=O)N2CCC3(CC2)OCCO3)ccc1Sc1ccc(C)cc1	2	5	-6	6	0	i	-16	10
Cc1nc2c(-c3ccc(F)cc3)c(C)nn2c(C)c1CCC(=O)N1CCC2(CC1)OCCO2	nt	49	-1	3	3	i	38	10
O=C(c1cccc2ccccc12)C1CCCN(Cc2ccon2)C1 (configuration not stated)	-14	-8	-6	3	0	i	4	-1
CCCCCc1nc2ccccc2c(=O)n1-c1ccc(Cl)cc1[N+](=O)[O-]	nt	-2	2	1	-2	i	nt	-8
Cc1nc2ccccc2c(=O)n1-c1ccc(C(=O)O)cc1	-20	-10	5	5	5	i	9	5
Cc1c2cnn(CC(=O)N3CCC4(CC3)OCCO4)c(=O)c2c(C)n1Cc1ccccc1	nt	nt	-4	1	-2	i	nt	-3
Cc1cccc(N=Cc2c(O)n(C)c(=O)n(C)c2=O)c1	-20	-11	1	-1	1	i	10	-12
Cc1ccsc1CNCCc1ccc(F)cc1	-15	-8	-6	-3	3	i	-3	-3
Fc1ccc(C2N3CCCN23)cc1 (configuration not stated)	-16	-5	-1	0	0	i	-7	-4
O=C(Cc1ccccc1)N1CCN(CCCc2ccccc2)CC1	-2	-4	-11	1	5	i	-4	-1
O=C(Nc1ccc(F)cc1F)c1cccnc1Oc1cccc(C(F)(F)F)c1	-5	nt	-4	-3	-3	i	10	4
CC(C)N(CC#CCC1(O)c2ccccc2-c2ccccc21)C(C)C	nt	-4	1	-13	-4	i	31	-3
Nc1nonc1OCCCCOc1nonc1N	-4	-10	-18	0	4	i	-2	2
COC(=O)C1=C(C)OC(N)=C(C#N)C12C(=O)Nc1ccccc12 (configuration not stated)	-14	-8	8	2	5	i	6	12
NCc1cc(=O)[nH]o1	-14	2	nt	2	6	nt	20	nt
O=[N+]([O-])c1c2ccccc2cc2ccccc12	-22	14	nt	3	3	nt	nt	nt
Cc1ccc(-c2nc(N(C)C3CCN(C)CC3)c3ccccc3n2)cc1	-14	21	0	-13	-4	i	nt	-4
O=Cc1cn(Cc2cccc(F)c2)c2ccccc12	nt	7	12	-4	0	i	nt	-4
COC(=O)C1=C(c2ccc(S(C)(=O)=O)cc2)C[C@@H]2CC[C@H]1N2C(=O)NCCO	13	-7	nt	-7	3	i	-13	nt
O=[P+](Cc1ccccc1)Cc1ccccc1	-1	nt	-3	1	5	i	nt	-13
O=C1/C(=C/c2ccncc2)N2CCC1CC2	nt	-16	0	-2	-4	i	7	-11
CC(=O)OC1CC[C@@]2(C)C(=CC(=O)C3C4CCC(OC(C)=O)[C@@]4(C)CCC32)C1 (some centres not stated)	1	-3	nt	-3	-5	i	-7	nt
CCCCn1c(O)c(C(CC)=NCCc2ccccc2)c(=O)[nH]c1=O	-2	-14	-2	-3	-10	i	nt	-7
CCN1C[C@]2(CO)CC[C@H](OC)[C@@]34C2[C@H](OC)[C@@](O)(C13)[C@@]1(O)C[C@H](OC)[C@H]2C[C@@H]4[C@@H]1[C@H]2OC	0	-11	-8	3	7	i	-3	10
O=C(C1CCN(S(=O)(=O)N2CCOCC2)CC1)N1CCC2(CC1)OCCO2	-1	8	3	4	1	i	-87	-2
Cc1ccc(-n2c(O)c(C=NC3CCCC3)c(=O)[nH]c2=O)c(C)c1	7	-12	10	1	1	nt	nt	0
CC(CCc1ccccc1)NCCC#N (configuration not stated)	nt	6	-3	0	5	i	0	2
N[C@@H](Cc1c[nH]c2ccccc12)c1nnc(SCc2c(F)cccc2Cl)o1	-11	14	6	-2	3	i	10	-10
CC1CN(c2cc([N+](=O)[O-])ccc2Cl)CC(C)N1 (configuration not stated)	nt	-3	0	-4	0	i	4	-1
Oc1cc2c(cc1CN1CCN(c3ccccc3)CC1)OCO2	-7	-5	2	-3	1	i	-6	-8
CC(C)OC(=O)Cc1ccccc1	10	-11	nt	-2	8	nt	nt	nt
COc1ccccc1N1CCN(Cc2cc(C)c(C)cc2O)CC1	-15	14	-4	-5	-9	i	29	-3
Cc1c(C)c2ccc(OCC(=O)N3CCC(C(=O)O)(c4ccccc4)CC3)cc2oc1=O	3	-11	-9	-1	6	nt	nt	58	eIF4H FP inh retest=-3;PABP FP inh retest=15
O=C(COc1ccc2ccccc2c1)N1CCN(CC2CC3C=CC2C3)CC1 (configuration not stated)	-10	-14	2	3	8	i	-26	4
C=C(C)CC1(CC)C(=O)NC(=S)NC1=O	-20	nt	nt	-1	2	nt	13	nt
O=C1CSC2N1CCNC21CCCCC1 (configuration not stated)	-1	-4	0	4	3	i	nt	6
C[n+]1ccc(-c2ccncc2)cc1	-12	-17	nt	-5	2	i	nt	nt
CCCCOc1nc2ccccc2c(=O)n1-c1ccccc1	-7	72	0	-2	-7	i	11	-4
Cn1cc(C(=O)N2CCC3(CC2)OCCO3)c2c3ccccc3n(C)c2c1=O	nt	-7	-2	2	1	i	-30	28
CN1CCN(Cc2ccc(N)cc2)CC1	nt	-3	3	0	4	i	-2	-6
COc1cc(CN2CC=C(c3ccc(F)cc3)CC2)cc(OC)c1	0	-9	9	0	1	i	6	-5
COc1cccc(N2C(=O)CC(=O)NC2=O)c1	2	-17	76*	-4	2	i	-53	77*
COc1cccc(-n2c(O)c(C=NCCN3CCOCC3)c(=O)[nH]c2=O)c1	-13	-10	-4	3	9	i	nt	-8
COc1ccccc1-n1c(O)c(C=NCCCn2ccnc2)c(=O)[nH]c1=O	-12	-7	0	-1	0	i	nt	-6
CCCC(=O)NC(Oc1ccc(C(C)=O)cc1)C(Cl)(Cl)Cl (configuration not stated)	nt	-3	-10	0	3	i	3	-8
CC(=O)NC(Cc1ccc(N(CCCl)CCCl)cc1)C(=O)NCC(=O)NCC(=O)O (configuration not stated)	nt	-8	23	-3	3	i	-2	1

These rows are one share of the data. The share of hits here may be higher or lower than overall.
